High-throughput results (PubChem BioAssay)
T cruzi inh – inhibitors of intracellular T. cruzi growth, primary screen, luminescence, NIH3T3 host cells; T. cruzi beta-gal in NIH3T3, 90 h; inhibition, % (no concentration beside the values); AID 1885, 2009; actives 1.4% (n = 300,000);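 active = mean inhibition across valid replicates above about 55%, limit read from the data; inconclusive = mean below that limit but half or more replicates reach it; inactive = mean below it, under half of replicates reach it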;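 also: signal also drops with host cell toxicity which is not excluded here; 0% = plate median of DMSO wells and 100% = zero luminescence signal; higher percent means less beta-gal luminescence so fewer parasites; stock transfer was 50 nL into about 50 µL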
Beta cell apopt – inhibitors of cytokine-induced beta cell apoptosis, primary screen, luminescence; actives 0.8% (n = 300,000); protection from apoptosis, % (concentration not given with the values); INS-1E cytokine-induced death, ATP luminescence, 48 h; percent of positive-control rescue, neutral wells zero;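 active = all replicates at 75% or more, or half of them and the mean; inconclusive = half reach 75% but not the mean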;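 also: 0% = cytokine-treated negative control wells and 100% = positive control rescue; higher means more ATP so stronger rescue from cytokine killing; wells of about 40 µL received 100 nL stock; the first replicate is given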
A1 inh – caspase 3/7 activation in MEF A1-2A-BIM cells, primary screen, A1 inhibitor project, cell-based, luminescence, HTS; Caspase-Glo 3/7 luminescence, 3 h; percent of clofoctol response, vehicle zero; caspase activation, % (concentration not given with the values); actives 0.066% (n = 330,000); AID 2462, 2010;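 active = over half of replicate activation scores above 10%, or exactly half above 10 with the replicate mean above 10; inconclusive = replicate mean below 10 yet half the replicates above 10; inactive = over half of replicates below 10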;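 also: wells of about 30 µL received 50 nL stock; many hits fall short of the cut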
Calb FLC – C. albicans growth inhibition with fluconazole, primary screen, CaCi-2 strain, Alamar Blue fluorescence; C. albicans CaCi-2 (fluconazole-resistant clinical isolate) + fluconazole, 48 h; growth inhibition, % (concentration not given with the values); actives 0.57% (n = 300,000); AID 1979, 2009;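 active = most replicates above 75%; inconclusive = exactly half above 75%; inactive = most below 75%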;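 also: all wells also contain fluconazole at 8 µg/ml as a sub-toxic cotreatment; 0% = median of DMSO wells and 100% = median of geldanamycin control wells; wells of about 8 µL received 7.5 nL stock; the first replicate is given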
Vif A3G – inhibitors of Vif binding to APOBEC3G peptide, primary screen, biochemical, TR-FRET, GST-Vif 1-94, biotin-A3G peptide, dose response retest (AID 1117319). Virion infectivity factor (Human immunodeficiency virus type 1 group M subtype B (isolate …. TR-FRET GST-Vif / biotin-A3G peptide binding; higher % means a stronger effect; test concentration not given here; strong numbers were not always called active. inhibition, %, or IC50 in µM where a hit was titrated. actives 0.57% (n = 260,000);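 active = above the screen mean plus three standard deviations and confirmed in dose response; inconclusive = results disagree or hit not tested in dose response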;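 also: Vif residues 1-94 fused to GST binding biotinylated APOBEC3G peptide 110-148; 0% = full assay without inhibitor and 100% = GST in place of GST-Vif; retest series ran down from 100 µM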
AF4-AF9 inh – inhibitors of AF4 peptide binding to AF9, primary screen, biochemical, AlphaScreen, biotin-AF4 peptide, FLAG-AF9, single point. actives 0.47% (n = 350,000). Protein AF-9 (Homo sapiens), P42568. AID 651704, 2012. inhibition, % at 10 µM;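 active = every replicate reaching a set inhibition limit, whatever the replicate mean, cut at about 25% in these data; inconclusive = mean inhibition reaches that limit but some replicates miss it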;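 also: 0% = plate neutral control median and 100% = total signal loss; the record names both 10 and 1 µM as test concentration; the first replicate is given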
Target sequence (P42568 whole entry, looked up): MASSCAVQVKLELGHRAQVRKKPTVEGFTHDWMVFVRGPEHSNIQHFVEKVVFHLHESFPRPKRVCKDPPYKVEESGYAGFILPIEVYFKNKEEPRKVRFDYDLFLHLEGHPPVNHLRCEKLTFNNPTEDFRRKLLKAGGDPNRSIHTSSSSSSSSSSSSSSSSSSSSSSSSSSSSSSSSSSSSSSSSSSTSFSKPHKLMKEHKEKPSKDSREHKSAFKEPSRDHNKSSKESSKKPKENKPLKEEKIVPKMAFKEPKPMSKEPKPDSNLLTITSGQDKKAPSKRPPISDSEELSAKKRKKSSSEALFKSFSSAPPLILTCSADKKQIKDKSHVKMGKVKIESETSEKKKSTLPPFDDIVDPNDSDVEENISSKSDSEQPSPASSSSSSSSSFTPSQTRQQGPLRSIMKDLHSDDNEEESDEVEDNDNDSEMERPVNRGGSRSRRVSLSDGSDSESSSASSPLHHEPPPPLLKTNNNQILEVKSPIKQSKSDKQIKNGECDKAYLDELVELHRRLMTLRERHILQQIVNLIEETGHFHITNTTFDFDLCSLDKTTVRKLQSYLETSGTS
RanGTP-Imp inh – inhibitors of RanGTP-importin-beta interaction, primary screen, biochemical, FRET, CFP-Ran, YFP-importin-beta, homogeneous; Ran GTPase (GTP-bound) - importin-beta complex; cell-free CFP-Ran/YFP-importin-beta FRET ratio; inhibition, % (test concentration not listed); actives 1.1% (n = 300,000);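 active = most replicates above 15%; inconclusive = exactly half above 15%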;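 also: 0% = DMSO wells and 100% = Ran loaded with GDP instead of GTP; wells of about 40 µL received 100 nL stock; the first replicate is given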
rRNA inh HTS – reduced GFP signal of wild-type E. coli, primary screen, bacterial rRNA inhibitor project, GFP/RFP fluorescence, OD600, single point | actives 1.6% (n = 350,000) | GFP signal change (wild-type ribosome), % (no concentration beside the values) | AID 720706, 2013 | E. coli WT GFP vs humanized-ribosome RFP mutants, 24 h; stronger effect = lower value; DMSO median 0, no signal -100;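 active = significant combined selectivity score with lowered wild-type GFP, culture density cut under 30%, mutant RFP and density less affected; inactive = any of these conditions unmet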; also: one replicate is shown; some compounds called inactive have numbers as strong as hits
rRNA inh HTS OD600 – second read-out of rRNA inh HTS, no call of its own (marks repeat the call); OD600 change, %; measured here: OD600 growth;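 optical density of the mix in the first replicate; 0 = DMSO median and -100 = no signal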
rRNA inh HTS RFP – second read-out of rRNA inh HTS, no call of its own (marks repeat the call); RFP signal change, %; measured here: RFP humanized mutant strains;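 first replicate; 0 = DMSO median and -100 = no signal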
* marks the source's active call; other numbers are inactive results; u = inconclusive; x = not tested or not shown; & = joins results of further samples.

SMILES	T cruzi inh	Beta cell apopt	A1 inh	Calb FLC	Vif A3G	AF4-AF9 inh	RanGTP-Imp inh	rRNA inh HTS	rRNA inh HTS OD600	rRNA inh HTS RFP
Cc1ccccc1NC(=O)c1ccc(C)c(S(=O)(=O)N2CCN(C)CC2)c1	-19	x	-0.3	-1	1%	-13	4.6	9	10	-0.6
COCCN1CCN(c2cc(-c3ccccc3)nc3cc(-c4cccc(F)c4)nn23)CC1	30	68	0.3	20	-5%	x	9.2	x	x	x
CC1(C)C(C=C(Cl)Cl)C1C(=O)N1CCN(Cc2ccccc2)CC1 (stereo unspecified)	27	3	0.0	-26	-1%	-0.2	1.5	-41	-37	-8.6
CC(=O)Nc1cccc(NC(=O)CSc2nnc(Cc3cccn3C)n2-c2ccc(F)cc2)c1	-6	-8	0.8	20	5%&-6%	9.9	0.2	6	4	-6.1
C/C(=N/NC(=O)c1cccc(N2CCCC2=O)c1)c1ccncc1	-1	-4	-2.0	-5	-7%	-1.1	-0.7	21	12	0.8
CC(C)C(=O)Nc1c(C(=O)c2ccc(F)cc2)oc2ccccc12	6	6	-1.5	1	7%	-9.1	-0.4	2	8	0.3
CC(C)Cn1c(SC(C)C(=O)NC2CC2)nnc1-c1ccccc1F (stereo unspecified)	x	1	0.9	x	3%	-20	x	4	10	1.2
O=C(O)[C@H](Cc1ccccc1)NC(=O)N1CCN(c2ccccc2)CC1	-10	-7	-0.6	-5	-9%	-7.4	-3.5	8	-2	-6.8
CC(=O)Nc1ccc(C(=O)CSc2nnnn2C2CCCC2)cc1	-8	-1	-0.3	-6	8%	-1.0	2.6	-15	-13	0.5
O=C(NC1CCN(C(=O)Nc2ccc(F)cc2)CC1)c1cccc(F)c1	-11	2	0.0	-2	x	1.3	-1.5	2	9	-0.1
CCCC(=O)NC(=S)Nc1c(C)cc(Br)cc1C	3	-1	0.7	0	-4%	x	-0.9	x	x	x
Cc1onc(-c2ccccc2)c1C(=O)Nc1ccc(-c2nnc3n2CCCCC3)cc1	3	0	0.4	4	3%	x	2.1	x	x	x
Cc1ccc(C2CC(c3ccc(F)cc3)Nc3nc(N)nn32)cc1 (stereo unspecified)	17	4	0.3	-3	-2%	-4.5	5.3	4	-4	1.8
COc1ccc(Cl)cc1NC(=O)CCN1C(=O)C2C3CCC(C3)C2C1=O (stereo unspecified)	0	-5	2.2	8	x	-1.0	-0.3	-3	-8	-1.1
CSc1n[nH]c(NCc2ccc(C)cc2)n1	19	-8	0.1	-11	23%	x	0.6	x	x	x
CCOc1ccc(CCNC(=O)CN2C(=O)NC3(CCCc4ccccc43)C2=O)cc1OCC (stereo unspecified)	-1	-4	0.6	x	2%	0.0	-7.1	12	0	1.2
Cc1cc(C)cc(NC(=S)NCCc2ccc(S(N)(=O)=O)cc2)c1	-5	-6	-0.1	1	x	2.7	0.0	-5	-11	-2.9
O=C(NC(c1ccccc1)c1ccccc1)c1ccc(Br)o1	-2	-6	0.9	5	0%	x	-5.2	x	x	x
CCC1(C)NC(=O)N(/N=C/c2cc(OC)c(O)c(OC)c2)C1=O (stereo unspecified)	x	3	0.0	-9	2%	-1.1	x	14	13	6.4
COc1ccc(C)cc1NC(=O)C(Sc1nnc(Nc2ccccc2F)s1)c1ccccc1 (stereo unspecified)	23	8	0.2	0	x	-0.1	-2.5	8	2	2.2
O=C(O)CCC(=O)N1CCc2cc(S(=O)(=O)NCc3cccs3)ccc21	-11	-6	0.0	10	2%	x	6.4	x	x	x
O=C(CSc1ccc(Br)cc1)NCC(c1cccs1)N1CCOCC1 (stereo unspecified)	11	-3	0.0	0	-4%	-15	1.6	-12	-14	0.8
COC(=O)c1ccc(COC(=O)CNS(=O)(=O)c2ccc(C)cc2)cc1	11	-4	-0.8	12	23%	-9.8	-0.4	-1	3	3.7
COc1ccccc1N1CCN(C(c2cccs2)C(C)NC(=O)c2cccs2)CC1 (stereo unspecified)	3	1	0.5	-4	2%	x	-2.5	x	x	x
COc1cccc(C(=O)Nc2nc3ccc(S(C)(=O)=O)cc3s2)c1	13	9	-5.8	-14	-70%	-1.5	-2.1	8	5	-0.7
Remaining list, next part
SMILES	T cruzi inh	Beta cell apopt	A1 inh	Calb FLC	Vif A3G	AF4-AF9 inh	RanGTP-Imp inh	rRNA inh HTS	rRNA inh HTS OD600	rRNA inh HTS RFP
CCN1CCN(Cc2c(O)ccc3c2O/C(=C\C=C\c2ccccc2OC)C3=O)CC1	4	2	0.3	-9	x	x	-372	x	x	x
COc1ccc(CCNC(=O)c2oc3ccc(OC)cc3c2C)cc1	9	-9	-1.0	33	x	0.0	5.4	2	0	-0.4
COc1ccc2[nH]cc(CCNS(=O)(=O)Cc3ccccc3)c2c1	5	-4	0.1	15	x	4.4	-0.2	-22	-26	-1.9
O=C(COC(=O)c1c(F)cccc1Cl)NC1CCCC1	-1	-2	-0.8	-4	-4%	-2.5	u	5	0	-0.8
COc1ccc(N(CC(=O)NCc2cccs2)S(=O)(=O)c2c(C)nn(C)c2C)cc1	-14	1	-0.6	1	3%	-0.5	6.0	1	1	-5.0
COC(=O)C1=NN(C(C)=O)C2(CC(=O)N(c3cccc(C)c3)C2=O)C1 (stereo unspecified)	-5	-12	0.4	-2	0%	x	3.1	x	x	x
O=C1NCCCC2c3c(cc(Br)c(O)c3Br)OC12N1CCOCC1 (stereo unspecified)	-8	-6	0.9	26	u	x	x	x	x	x
COc1cccc2cc(C(C)N(CCCN3CCOCC3)C(=S)Nc3cccc(C)c3C)oc12 (stereo unspecified)	8	-6	-0.3	-7	2%	7.4	1.3	3	9	11
Cc1ccc(NC(=O)/C(=C/c2cccs2)NC(=O)c2ccco2)cc1	11	-5	0.7	-9	x	x	0.5	x	x	x
O=C(NC1CCCCCC1)c1c(O)c2ccccc2[nH]c1=O	16	6	-1.6	-16	-9%	x	-1.4	x	x	x
CCn1c(SCC(=O)N2CCC(C)CC2)nnc1-c1ccc(S(=O)(=O)N2CCN(C)CC2)cc1	8	0	0.1	-2	12%	x	1.6	x	x	x
COc1ccc(NC(=S)Nn2cnnc2)cc1OC	-5	-6	-0.3	38	x	-0.7	0.0	x	x	x
CCCn1c2c(c(O)c(C(=O)Nc3ccc(OCC)cc3)c1=O)CCCC2	4	5	-0.3	-10	-4%	x	u	x	x	x
Cc1cccc(NC(=O)CN(C)C(=O)c2ccc(N3CCCCCC3)c([N+](=O)[O-])c2)c1C	x	-5	1.7	x	6%	6.3	x	-25	-50	-9.1
CCOc1ccccc1NS(=O)(=O)c1cn(C)c(=O)n(C)c1=O	u	-5	-0.1	1	2%	x	3.3	x	x	x
CS(=O)(=O)N(CC(=O)NC1CCCC1)Cc1ccc(Cl)cc1	1	x	x	-12	4%	x	-0.1	x	x	x
Cc1c(C)n(CC(O)CNCCO)c2ccccc12 (stereo unspecified)	-3	-5	0.1	-7	-1%	12	-3.2	14	11	-0.7
Cc1nn(C)cc1C(C(=O)NC1CCCCC1)N(C(=O)Cc1cccs1)c1ccc(C(C)C)cc1 (stereo unspecified)	9	4	0.6	-20	0%	x	u	x	x	x
COc1ccc(C(=O)/C=C/c2ccc(OC(=O)c3cc(OC)c(OC)c(OC)c3)cc2)cc1	-5	-5	0.3	0	13%	12	-3.0	2	9	3.0
O=C(N/N=C/c1ccccc1F)NC1CCCCC1	-3	2	1.1	-24	x	x	2.4	x	x	x
COc1ccc(C(=O)c2c(C)oc3ccc(O)c(CN4CCOCC4)c23)cc1	7	-2	-0.5	19	8%	x	-4.2	x	x	x
Cc1cc(C(F)F)nn1CC(=O)NC1CCCCCC1	1	0	0.1	-5	x	-2.0	1.7	2	-1	0.6
Cc1ccc2nc(NC(=O)CCCC(=O)O)sc2c1	-2	-4	-3.7	-9	7%	-2.0	6.5	13	7	-0.4
O=C(O)c1cnn(-c2ccccc2)c1-c1ccncc1	0	-2	0.7	0	22%	0.8	3.2	-7	-7	-2.3
O=C(N/N=C/c1ccc(N2CCOCC2)cc1)c1ccc(NS(=O)(=O)c2cccs2)cc1	-8	-3	-0.7	1	8%	0.9	-1.2	-6	-4	2.0

Next part, overlapping the part above by 2 compounds.
SMILES	T cruzi inh	Beta cell apopt	A1 inh	Calb FLC	Vif A3G	AF4-AF9 inh	RanGTP-Imp inh	rRNA inh HTS	rRNA inh HTS OD600	rRNA inh HTS RFP
O=C(O)c1cnn(-c2ccccc2)c1-c1ccncc1	0	-2	0.7	0	22%	0.8	3.2	-7	-7	-2.3
O=C(N/N=C/c1ccc(N2CCOCC2)cc1)c1ccc(NS(=O)(=O)c2cccs2)cc1	-8	-3	-0.7	1	8%	0.9	-1.2	-6	-4	2.0
COc1ccc(/C=N/NC(=O)c2nnn(-c3nonc3N)c2CN(C)C2CCCCC2)cc1	3	1	0.1	x	-2%	-1.5	2.6	5	10	-0.6
O=c1c(CN2CCN(c3cccc(Cl)c3)CC2)coc2c(Cl)cc(Cl)cc12	9	-2	0.4	12	-3%	-41	3.8	5	0	-2.5
O=C(O)C1C(=O)NCC1c1ccccc1 (stereo unspecified)	-16	4	1.8	-2	u	-3.7	-0.4	19	18	0.9
O=C(CCN1CCN(S(=O)(=O)c2ccc(F)cc2)CC1)Nc1ccccc1F	4	-3	-0.1	22	x	-0.3	1.8	0	4	3.5
COc1ccc(S(=O)(=O)N(C)c2c(C)n(C)n(-c3ccccc3)c2=O)cc1OC	-8	-3	0.1	1	4%	x	-1.3	x	x	x
CCN(CC(=O)Nc1ccc(S(=O)(=O)N2CCOCC2)cc1)Cc1ccccc1	2	-2	-0.6	2	-2%	-3.6	3.7	-5	-7	-1.1
CCSC(SCC)[C@H](O)[C@@H](O)[C@H](O)[C@H](O)CO	4	x	2.2	x	27%	-5.8	2.8	6	10	1.5
Cc1ccc(-c2[nH]ncc2C(=O)c2cccc(F)c2)c(O)c1	-3	-6	-1.3	38	3%	-1.1	6.0	1	1	0.0
CCCc1cc(=O)[nH]c(SCc2cc(C(=O)OC)c(C)o2)n1	3	-11	0.2	40	-2%	x	-3.5	x	x	x
O=C(N/N=C/c1c[nH]c2ccccc12)c1ccn[nH]1	-14	0	-1.3	27	28%	0.8	2.2	7	8	0.7
N#Cc1cn(CC(=O)N2CCCC2)c2ccccc12	-5	-1	0.0	-5	-5%	x	-3.1	x	x	x
Cc1ccc(C)c(S(=O)(=O)Nc2ccc(C(N)=O)cc2)c1	-10	-1	-0.3	20	9%	-13	3.4	10	5	1.9

A portion of the library, so the mix of outcomes need not match the whole.
